# StopGo RLuc – lowers the Renilla signal of an FMDV 2A StopGo reporter; HEK cells with a luciferase reporter of 2A StopGo recoding; 120,000 tested, 0.32% active; Potency, µM (series often up to 57.5 µM), for the others: top-dose signal change, negative = less light; active means well fitted falling curve with a large enough effect; inconclusive means small, poorly fitted or top-dose-only effect; inactive means no such curve, though single readings can be large or run the other way; note: nearly all actives have a fitted effect of over 55% in size; overnight with compound
# 2A firefly – FMDV 2A StopGo reporter, firefly signal; 120,000 tested, 0.23% active; HEK cells with a luciferase reporter of 2A StopGo recoding; Potency, µM (series often up to 57.5 µM), inactives show at the top dose signal change, negative = less light; active = well fitted falling curve with a large enough effect; inconclusive = small, poorly fitted or top-dose-only effect; inactive = no such curve, though single readings can be large or run the other way; note: nearly all actives have a fitted effect of over 60% in size; overnight with compound
# Starred values were filed as active, the others as inactive; ? = inconclusive; & = joins results of further samples; [ ] = remark or other dose. % is set by controls: 0 for no effect and ±100 for the full control effect; potency is the fitted concentration of half-maximal effect. These rows are one share of the data (hit frequency here may not be typical).
# Order of values: StopGo RLuc	2A firefly
> COc1ccc(C2=NOC(Cn3c(=O)c4c(ncn4C)n(C)c3=O)C2)c(OC)c1 (configuration not stated)
  16%	155%[activator]
> Cc1cc2oc(=O)cc(CN3CCN(C(=O)C4COc5ccccc5O4)CC3)c2cc1C (configuration not stated)
  -5%	16%
> Oc1ccc(C(c2c[nH]c3ccccc23)c2c[nH]c3ccccc23)cc1
  4%	18%
> CCc1nn2c(=O)cc(COC(=O)C(c3ccccc3)c3ccccc3)nc2s1
  -1%	-1%
> COc1ccccc1NC(=O)CCCOc1cc(=O)n(C)c2ccccc12
  139%[activator]	119%[activator]
> CCCCNS(=O)(=O)/C=C/c1cc(C)ccc1CNC(=O)OC(C)(C)C
  0%	-9%
> CCOc1ccc(NC(=O)Cn2nnc(C(=O)Nc3ccc(OCC)cc3)c2N)cc1
  5%	100%[activator]
> CCOc1ccc(N(C)S(=O)(=O)c2ccc3c(c2)C(C)(C)C(=O)N3C)cc1
  -7%	-4%
> CN(C)c1ccc(C(CNC(=O)c2ccc(C(C)(C)C)cc2)N2CCOCC2)cc1 (configuration not stated)
  -7%	5%
> Cc1c(NC(=O)CCSc2nc3c(=O)n(C)c(=O)n(C)c3n2C)cccc1C(F)(F)F
  3%	7%
> O=C1CCSc2c1cccc2C(=O)Nc1ccc(F)c(Cl)c1
  40%[activator]	0%
> COc1cc(C2c3c(-c4ccccc4O)n[nH]c3C(=O)N2Cc2ccco2)cc(OC)c1OC (configuration not stated)
  40%[activator]	7%
> CC(C)c1ccc2c(c1)-c1ccccc1S(=O)(=O)N2CC(=O)N1CCCCC1
  226%[activator]	0%
> COc1cc(Nc2nc3ccccc3nc2C(=O)OCC(C)C)cc(OC)c1
  11%	11%
> CSc1ccc(C)c(C(=O)NC2CCCCCCC2)c1
  70%[activator]	21%

# Compound profiles (already shown).
# COc1cc(Nc2nc3ccccc3nc2C(=O)OCC(C)C)cc(OC)c1 is listed as StopGo RLuc = 11%; 2A firefly = 11%
# Oc1ccc(C(c2c[nH]c3ccccc23)c2c[nH]c3ccccc23)cc1 is listed as StopGo RLuc = 4%; 2A firefly = 18%

# Remaining list, next part:
# Order of values: StopGo RLuc	2A firefly
> O=C1Nc2ccccc2CCC1n1nc(-c2ccccc2Cl)ccc1=O (configuration not stated)
  -3%	20%
> O=S(=O)(NCCO)c1ccc(Cl)c2ccccc12
  189%[activator]	-5%
> CN(C(=O)Cn1c(CN2CCOCC2)nc2ccccc21)c1ccccc1
  4%	0%
> O=C(Nc1ncn[nH]1)c1ccc(Cl)c(S(=O)(=O)N2CCCCCC2)c1
  2%	-5%
> COc1ccc(-c2nnc3ccc(Nc4ccc(F)cc4)nn23)cc1
  -8%	0%
> COc1ccc2c(c1OC)C(=O)OC2Nc1nc(-c2ccc(C)cc2)cs1 (configuration not stated)
  ?	26%
> CCOCCn1c(N2CCNCC2)nc2c1c(=O)[nH]c(=O)n2C
  -3%	-4%
> Cc1[nH]c2ccccc2c1C(=O)COc1ccc(C(N)=O)cc1
  -12%	1%
> COc1cc(/C=C/[N+](=O)[O-])c2c(c1Br)CCCO2
  ?	?
> Cc1nc2c3c(C)c(C)n(Cc4ccccc4)c3ncn2n1
  -18%	16%
> O=C1CSc2ccc(C(=O)OCC(=O)c3cccs3)cc2N1
  24%	36%[activator]
> Cc1ccc(-c2noc(CNc3ccccc3F)n2)cc1
  21%	17%
> CCc1ccc(NC(=O)C2CCn3c(C(=O)c4ccccc4)ccc32)cc1 (configuration not stated)
  6%	17%
> CCn1cc(C(=O)N(C)c2cc(C)ccc2C)c2cc(OC)c(OC)cc2c1=O
  9%	-9%
> CCOC(=O)N1CCC(NC(=O)c2cnn(-c3ccccc3)c2C2CCN(C(=O)OC(C)(C)C)CC2)CC1
  -14%	-7%

# Taken from the results shown, 3 compounds:
# Order of values: StopGo RLuc	2A firefly
> CCc1ccc(NC(=O)C2CCn3c(C(=O)c4ccccc4)ccc32)cc1 (configuration not stated)
  6%	17%
> CCn1cc(C(=O)N(C)c2cc(C)ccc2C)c2cc(OC)c(OC)cc2c1=O
  9%	-9%
> CCOC(=O)N1CCC(NC(=O)c2cnn(-c3ccccc3)c2C2CCN(C(=O)OC(C)(C)C)CC2)CC1
  -14%	-7%

# Following part
# Order of values: StopGo RLuc	2A firefly
> CSCCC(NS(=O)(=O)c1ccc2c(c1)oc(=O)n2C)C(=O)N1CCN(c2ccc(F)cc2)CC1 (configuration not stated)
  -6%	-23%
> CCCOc1ccc(NC(=O)C(=O)NCCCN2CCOCC2)cc1
  -16%	-6%
> CCc1cccc(N2C(=O)CSC23C(=O)Nc2ccccc23)c1 (configuration not stated)
  -1%	-7%
> CCN(CC)S(=O)(=O)c1ccc(C(=O)Nc2c(C)cc(Br)cc2Cl)cc1
  -12%	?
> CCOc1ccc(C(=O)COC(=O)Cn2cnc3ccccc3c2=O)cc1
  -5%	7%
> O=C(O)c1ccc(C2CCCCC2)cc1
  -15%	10%
> O=C(NC1CCCCC1)c1cc(Sc2cccc(Cl)c2)nc2ccccc12
  58%[activator]	0%
> CC(C)NC(=O)CN(C)CC(O)COc1c(Cl)cccc1Cl (configuration not stated)
  1%	2%
> COc1cc(Cl)c(C)cc1-n1cc(C(=O)c2cc(Cl)ccc2O)cc(C#N)c1=O
  21%	-6%
> Cc1cccc(C)c1NC(=O)CN(C)Cc1coc(-c2ccccc2)n1
  -6%	-14%
> C=C(C)CSc1nc2sc3c(c2c(=O)n1-c1ccccc1)CC(C(C)C)OC3 (configuration not stated)
  -3%	-1%
> COC(=O)c1c(NC(=O)c2cc3nc(-c4ccc(OC)cc4)cc(C(F)(F)F)n3n2)sc2c1CCCC2
  63%[activator]	-22%
> Cc1cc(C)c(NC(=O)CSc2nc(=O)[nH]c3c2CCCC3)c(C)c1
  -2%	-12%
> COc1ccc(NC(=O)CSc2nnc3c(C)cc4ccccc4n23)cc1
  0%	-14%
> CCOc1cc(/C=C/C(=O)OC(C)C(C)=O)cc(Cl)c1OC (configuration not stated)
  16%	0%
> CCc1ccc(N2C(=O)CSC23C(=O)N(Cc2cccc(F)c2)c2ccccc23)cc1 (configuration not stated)
  -18%	?
> CC(NC(=O)CN1C(=O)COc2ccc(Cl)cc21)c1ccccc1 (configuration not stated)
  -3%	-5%
> COc1cc(OC)c(NC(=O)NCc2ccc3c(c2)CCN3C(=O)c2ccccc2)cc1Cl
  22µM*	0%
> Cc1ccc(CNC(=O)c2scnc2C)s1
  24%	35%[activator]
> COc1ccc(N2CC(NC(=O)/C=C\c3ccccc3)CC2=O)cc1 (configuration not stated)
  -12%	-12%
> Cc1ccccc1C1CC(=O)Oc2c1c(=O)n(C)c1ccccc21 (configuration not stated)
  1%	-5%
> CCN(CC)C(=S)SCC(=O)NC(=O)NC1CCCC1
  43%[activator]	18%
> CCCNC(=O)CNC(=O)c1nn(C)c(=O)c2ccccc12
  2%	2%
> O=C(NCc1ccncc1)c1ccc(C2CCCCC2)cc1
  3.5µM*	?
> O=C(O)/C=C/c1ccc(Br)c(Cl)c1
  -3%	4%
> C(#Cc1ccccc1)CN1CCCC1
  3%	0%
> O=C(CSc1nnc(-c2cccs2)o1)Oc1ccc(Cl)cc1
  27%	3%
> Cc1ccc(-c2cnc(CCC(=O)N3CC(C(=O)N(C)C)Oc4ccccc43)o2)cc1C (configuration not stated)
  -2%	-4%
> CCOc1ccc(NC(=O)Cn2c(=O)n(-c3cccc(OC)c3)c(=O)c3c4c(sc32)CCCC4)cc1
  -15%	-6%
> COc1ccc(/C=C/C(=O)Nc2ccc3c(c2)Cc2ccccc2-3)cc1
  26%	0%
> CCOc1ccccc1CNC(=O)c1ccc(N2Cc3ccccc3Oc3ncccc32)s1
  -4%	-4%
> COc1ccc(C(=O)C(C)OC(=O)c2nn(C)c(=O)c3ccccc23)cc1 (configuration not stated)
  -7%	2%
> Cc1cc(C)c(NC(=O)Cc2c[nH]c3ccccc23)c(Cl)c1
  9%	0%
> CCN(Cc1ccccc1)S(=O)(=O)c1ccc2c(c1)CCCN2C(C)=O
  116%[activator]	-26%
> C/C(=N\O)C1CCCCCCCCCCC1
  11%&5%	-7%&8%
> O=C(NCCOc1ccccc1)c1cc2ccccc2oc1=O
  -1%	53%[activator]
> CCOC(=O)c1[nH]c(C)c(CCC(=O)NCc2ccc(OCC)cc2)c1C
  -11%	-14%
> CC(NC(=O)c1ccc(C(C)(C)C)cc1)C1CC1 (configuration not stated)
  32%[activator]	0%
> CC(C)(C)C1CCc2c(sc(NC(=O)c3ccncc3)c2C(=O)Nc2ccccc2Cl)C1 (configuration not stated)
  -5%	-12%
> CCC(C(=O)O)n1ccc2cc(S(=O)(=O)N3CCCCC3)ccc21 (configuration not stated)
  -3%	-12%
> COc1cc(NC(=O)Nc2ccccc2OCc2cc(=O)n3cccc(C)c3n2)cc(OC)c1
  -8%	-6%
> COc1cccc(Nc2sc(C(=O)c3ccc4c(c3)OCO4)c(N)c2S(=O)(=O)c2ccccc2)c1
  13%	-2%
> CC(c1nc(C(C)(C)C)no1)N(C)Cc1ccc2c(c1)OCO2 (configuration not stated)
  8%	0%
> COc1ccccc1CNC(=O)C(=O)NCC(c1ccco1)S(=O)(=O)c1ccc(C)cc1 (configuration not stated)
  12%	-23%
> Cc1ccc(C2=NN(C(=O)c3ccco3)C(c3ccc4nccnc4c3)C2)cc1 (configuration not stated)
  -13%	92%[activator]
> C#CCOc1c(Br)cc(/C=C2/NC(=O)NC2=O)cc1OCC
  11%	10%
> CCc1ccc(NC(=O)C2CC3CCCC(C2)C3=O)cc1 (configuration not stated)
  13%	100%[activator]
> Cc1ccc(C2=CC(c3ccccc3C)n3nnnc3N2)cc1 (configuration not stated)
  9%	38%[activator]
> CS(=O)(=O)c1cccc(OCC(=O)c2ccc(F)cc2)c1
  4%	60%[activator]
> Cc1c(C(=O)N2CCC(C)CC2)c(S(=O)(=O)N(Cc2ccccc2)C(C)(C)C)c(C)n1C
  64%[activator]	3%
> CN(C(=O)Cn1nc(-c2ccccc2F)ccc1=O)C1CCS(=O)(=O)C1 (configuration not stated)
  -15%	-2%
> C=CCS(=O)(=O)O
  0%	3%
> N#Cc1ccc(F)c(Cn2cnc3c(Cl)cc(Cl)cc3c2=O)c1
  9%	29%
> N=C(N)SCCSc1ccc(Cl)cc1
  -9%[1.06 µM]	36%[activator]
> Cc1csc(NC(=O)c2nn(C)c(=O)c3ccccc23)n1
  16%	214%[activator]
> Fc1ccc(C2=CC(c3ccc(F)cc3)n3c(nc4ccccc43)N2)cc1 (configuration not stated)
  -3%	152%[activator]
> CCOC(=O)C(NC(=O)c1cc(OC)cc(OC)c1)C(=O)OCC
  -6%	-8%
> O=S1(=O)c2ccccc2N(Cc2cccc(Cl)c2)c2ccccc21
  29%	-10%
> COc1ccc(N2CCN(C(=O)C3CCN(Cc4nc(-c5ccc(Cl)cc5)oc4C)CC3)CC2)cc1
  -18%	-9%
> CCOC(=O)c1cc(-c2ccc(C)cc2)n(CC(=O)Nc2cc(C)ccc2C)c1C
  -5%	0%

# Carrying on.
# Order of values: StopGo RLuc	2A firefly
> Cc1ccn2c(=O)cc(COc3ccc(NC(=O)COc4ccc(C)c(C)c4)cc3)nc2c1
  14%	-28%
> O=C(Cn1c(=O)n(-c2ccccc2Cl)c(=O)c2sc3ccccc3c21)N1CCCC1
  -4%	-2%
> Cn1c(=O)[nH]c(=O)c2c1nc(CN1CCN(Cc3ccccc3)CC1)n2Cc1ccccc1Cl
  -13%	-13%
> Cc1c(Cl)cccc1NC(=O)N1CCOc2ccccc21
  -1%	7%
> Cn1c(=O)c2c(nc(CN3CCc4ccccc4C3)n2Cc2ccccc2)n(C)c1=O
  -23%	-25%
> COc1cccc(NC(=O)CSc2nc3ccc(NC(=O)c4ccc(F)cc4)cc3s2)c1
  30%[activator]	60%[activator]
> CCCCCSc1nnc2c(n1)OC(c1ccc(C)s1)N(C(C)=O)c1ccccc1-2 (configuration not stated)
  0%	2%
> Nc1ccc2c(S(=O)(=O)O)cc(S(=O)(=O)O)cc2c1
  -3%	4%
> Cc1ccc(S(=O)(=O)c2nc(-c3ccccc3)oc2N(C)C)cc1
  -7%	9%
> COc1ccccc1CNC(=O)C(=O)NCC(c1ccco1)S(=O)(=O)c1cccs1 (configuration not stated)
  -6%	-28%
> CCCCCCC(=O)NNC(=O)NCCCC
  -12%[1.06 µM]	-10%
> COc1ccc(OC)c(NC(=O)CCc2c(C)nc3c(c(C)nn3C(C)(C)C)c2C)c1
  -11%	-16%
> Cc1ccc2nc(C(=O)N3CCN(c4ccccc4)CC3)cn2c1
  -18%	38%[activator]
> Cc1cccc(N(C)C(=O)CCNS(=O)(=O)c2ccc3c(c2)CCN3C(=O)C2CC2)c1
  17%	-13%
> FC(F)(F)c1cc(Cl)c2n[nH]c(=S)n2c1
  -10%	-19%
> COc1ccc(-c2c(NC(=O)c3cccc(OC)c3)sc3ccccc3c2=O)cc1
  -2%	0%
> Cc1cccc(CCNC(=O)c2ccc(CSCc3cccc(Cl)c3)o2)c1
  6%	1%
> COc1ccc(C2C(=O)N(C3CCC(C)CC3)CC(=O)N2C2CCCCC2)cc1OC (configuration not stated)
  -7%	-17%
> COc1ccccc1NC(=O)COC(=O)CC(C)(C)CC1=NS(=O)(=O)c2ccccc2N1
  219%[activator]	-6%
> COC(=O)c1ccc(NC(=O)C(C)Sc2nc(=O)cc(N)n2CCc2ccccc2)cc1 (configuration not stated)
  0%	4%
> Cc1cccc(Cn2c(CNS(=O)(=O)c3ccc(C(C)C)cc3)nc3cccnc32)c1
  126%[activator]	3%
> COc1cccc(OC)c1C(=O)Nc1ccc2oc(-c3cccnc3)nc2c1
  26%	0%
> NCCSCc1cccs1
  11%	4%
> COc1cc(/C(C)=N/O)ccc1OC(F)F
  13%	19%
